KCNQ2 inh: KCNQ2 potassium channel inhibitors, primary screen, cell-based, CHO-K1, FluxOR thallium flux, B-score (AID 2156); O88943; 20 min; stronger effect = lower value; only compounds with negative scores are shown here; some inactives read as strong as hits; B-score at 10 µM; hit rate 1.1% among 310,000;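 active = fluorescence ratio B-score at most minus 3 library SDs, with starting brightness B-score within 2 library SDs, cut at about -5.5 in these data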
Target sequence (O88943 whole entry, looked up): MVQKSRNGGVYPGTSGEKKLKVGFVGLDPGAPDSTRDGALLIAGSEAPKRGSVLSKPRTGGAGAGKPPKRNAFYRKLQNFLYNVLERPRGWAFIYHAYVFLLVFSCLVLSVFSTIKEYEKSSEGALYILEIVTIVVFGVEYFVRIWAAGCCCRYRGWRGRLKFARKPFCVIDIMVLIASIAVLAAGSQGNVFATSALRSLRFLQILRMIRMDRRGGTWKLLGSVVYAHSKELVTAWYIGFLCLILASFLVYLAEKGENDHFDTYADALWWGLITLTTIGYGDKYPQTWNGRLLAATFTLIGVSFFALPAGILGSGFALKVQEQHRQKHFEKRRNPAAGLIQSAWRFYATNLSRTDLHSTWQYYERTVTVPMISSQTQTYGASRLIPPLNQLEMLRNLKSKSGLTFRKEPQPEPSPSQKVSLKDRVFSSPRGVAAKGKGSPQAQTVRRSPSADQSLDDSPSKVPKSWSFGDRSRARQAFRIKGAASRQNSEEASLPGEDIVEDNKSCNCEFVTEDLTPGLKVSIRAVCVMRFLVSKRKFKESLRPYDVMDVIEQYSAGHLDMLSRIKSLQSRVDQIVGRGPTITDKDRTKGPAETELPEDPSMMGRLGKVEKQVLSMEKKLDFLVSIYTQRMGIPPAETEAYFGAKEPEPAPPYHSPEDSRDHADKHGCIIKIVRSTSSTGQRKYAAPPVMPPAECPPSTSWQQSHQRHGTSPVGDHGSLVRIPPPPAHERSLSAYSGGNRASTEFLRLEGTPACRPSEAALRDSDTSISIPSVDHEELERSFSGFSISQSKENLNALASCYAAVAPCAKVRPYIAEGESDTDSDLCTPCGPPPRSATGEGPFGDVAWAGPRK
KCNQ2 inh baseline: second read-out of KCNQ2 inh, no call of its own (marks repeat the call); B-score; measured here: initial fluorescence intensity artifact check;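 brightness before thallium and not channel activity; 0 = typical well and far values either way flag optical interference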
* marks the source's active call; other numbers are inactive results; i = inactive.

SMILES	KCNQ2 inh	KCNQ2 inh baseline
CCN(CC)c1ccc(NC(=O)COc2ccc(C)cc2)cc1	i	-0.45
Cc1ccc(OCc2cc(C(=O)N(C)CCn3ccnc3C)no2)cc1C	i	-0.39
COc1ccc(Nc2nc(-c3sc(N)nc3C)cs2)cc1	i	0.12
COC(=O)c1ccc(OC(C)C(=O)c2ccc(C)cc2)cc1 (stereo not drawn)	i	-0.59
O=C1N2CCCc3cccc(c32)C12Nc1ccccc1S2 (stereo not drawn)	i	-1.6
CCSc1nc(C)c(C)c(=O)[nH]1	i	0.03
COCc1cc(=O)[nH]c(SCCS(=O)(=O)c2ccc(C)cc2)n1	i	2.44
NS(=O)(=O)c1ccc(CCNC(=O)/C=C/c2cccc([N+](=O)[O-])c2)cc1	i	0.84
COc1cc(C(=O)Nc2ccc(C(N)=O)cc2)c([N+](=O)[O-])cc1OC	i	1.63
O=C(NCC(c1cccs1)N1CCOCC1)c1cc([N+](=O)[O-])ccc1Cl (stereo not drawn)	i	-2.53
Cc1ccc(C)c(NC(=O)CCN2CCc3ccccc3C2)c1	i	0.53
COc1ccc(Nc2nnc(SCc3cc([N+](=O)[O-])cc4c3OCOC4)s2)cc1	i	1.69
Cc1cc(C)cc(NC(=O)N2CCC(c3nc4ccccc4o3)CC2)c1	i	0.3
CCOc1ccc(/C=N/NC(=O)c2cc(-c3cccn3C)n[nH]2)cc1	i	-0.33
COCCNC(=S)NNC(=O)CSCc1ccc(Cl)cc1Cl	i	1.05
Cc1cccc(N(C)S(=O)(=O)c2ccc(-c3cc(C)no3)s2)c1	-7.03*	-0.99*
Cc1ccc([N+](=O)[O-])c2cccnc12	i	1.45
CCOC(=O)c1cc(-c2ccccc2)sc1NC(=O)CSc1nncs1	i	0.96
c1ccc2c(c1)CCN(Cc1nnnn1Cc1ccc3c(c1)OCO3)C2	i	-0.4
COc1ccc(CC(=O)N(C)Cc2cccc(F)c2)cc1S(=O)(=O)N1CCOCC1	i	0.26
COc1ccccc1CNC(=O)COc1ccc([N+](=O)[O-])cc1	i	0.06
COc1ccc(Cn2c(-c3ccc(Br)cc3)c[n+]3ccccc23)cc1	i	0.5
CSc1nnc2c3ccccc3c3ccccc3c2n1	i	0.03
CCOc1ccccc1NC(=O)CSc1nnc(-c2ccccc2Cl)n1Cc1ccco1	i	-0.38
CCCOc1cccc(-c2nn(-c3ccccc3)cc2/C=C(\C#N)C(=O)NCCCn2ccnc2)c1	i	0.32

An excerpt from above in order of molecular weight, highest first.
SMILES	KCNQ2 inh	KCNQ2 inh baseline
CCCOc1cccc(-c2nn(-c3ccccc3)cc2/C=C(\C#N)C(=O)NCCCn2ccnc2)c1	i	0.32
COc1ccc(Nc2nnc(SCc3cc([N+](=O)[O-])cc4c3OCOC4)s2)cc1	i	1.69
O=C(NCC(c1cccs1)N1CCOCC1)c1cc([N+](=O)[O-])ccc1Cl (stereo not drawn)	i	-2.53
NS(=O)(=O)c1ccc(CCNC(=O)/C=C/c2cccc([N+](=O)[O-])c2)cc1	i	0.84
Cc1ccc(OCc2cc(C(=O)N(C)CCn3ccnc3C)no2)cc1C	i	-0.39
c1ccc2c(c1)CCN(Cc1nnnn1Cc1ccc3c(c1)OCO3)C2	i	-0.4
Cc1cccc(N(C)S(=O)(=O)c2ccc(-c3cc(C)no3)s2)c1	-7.03*	-0.99*
COc1cc(C(=O)Nc2ccc(C(N)=O)cc2)c([N+](=O)[O-])cc1OC	i	1.63
CCN(CC)c1ccc(NC(=O)COc2ccc(C)cc2)cc1	i	-0.45
Cc1ccc(C)c(NC(=O)CCN2CCc3ccccc3C2)c1	i	0.53
COC(=O)c1ccc(OC(C)C(=O)c2ccc(C)cc2)cc1 (stereo not drawn)	i	-0.59
CSc1nnc2c3ccccc3c3ccccc3c2n1	i	0.03
Cc1ccc([N+](=O)[O-])c2cccnc12	i	1.45
CCSc1nc(C)c(C)c(=O)[nH]1	i	0.03

(listing goes on)
SMILES	KCNQ2 inh	KCNQ2 inh baseline
Cc1cc(C(=O)NCCCN2CCN(c3cc(Cl)ccc3C)CC2)n(-c2ccccc2)n1	i	-1.42
CCOC(=O)C1=C(C)NC(=O)CC1c1ccccc1 (stereo not drawn)	i	-0.39
Cc1c(-c2ccccc2)[n+](=O)c2c(n1[O-])CCC2	i	0.3
COc1cc(NC(=O)COc2ccc(Cl)cc2)ccc1NC(=O)C(C)C	i	0.65
Cc1cc(OC(=O)c2ccc(S(=O)(=O)N3CCCCC3)cc2)c([N+](=O)[O-])c(=O)[nH]1	i	-0.28
CC(=O)Nc1ccc(S(=O)(=O)Nc2ccccc2C(=O)N2CCCCC2)cc1	i	0.56
Cc1[nH]c2ccc(F)cc2c1CCN(Cc1ccncc1)C(=S)Nc1cccc(F)c1	i	-0.31
Cc1ccc(N2C(=O)CN(Cc3ccccc3)C2=S)cc1C	i	0.04
O=C(COC(=O)Cc1ccc(Br)cc1)NCc1ccc(F)cc1	i	-0.41
C=CC(COCc1ccccc1)N(C(=O)OC(C)(C)C)S(=O)(=O)c1ccccc1Br (stereo not drawn)	i	-0.06
O=C(Nc1ccccc1)C1=C[C@H](c2ccc(C(F)(F)F)cc2)C[C@H](OCCCCO)O1	i	-0.25
O=Cc1c(NCc2ccc(F)cc2)c2ccccc2[nH]c1=O	i	1.42
CCc1ccc(/C=C2/SC(=S)N(CCC(=O)NCCCN3CCOCC3)C2=O)cc1	i	0.64
CC1(C)Oc2ccc(/C=C/C(=O)N3CCOCC3)c(O)c2C(N2CCOCC2)C1O (stereo not drawn)	i	1.17
O=c1cc2c(nn1Cc1ccc(Cl)cc1)-c1ccccc1CC2	i	-1.92
CCc1ccc2ncc(S(=O)(=O)c3ccc(C)c(C)c3)c(N3CCCC3)c2c1	i	1.49
CC(C)(C)c1ccc(OCCOc2ccc(C(C)(C)C)cc2NC=O)c(NC=O)c1	i	0.46
COc1ccccc1OCCCC(=O)Nc1ccc([N+](=O)[O-])cc1Br	i	-0.53
CCCCOC(=O)C1=C(C)Nc2ncnn2C1c1cc(OC)c(OC)cc1OC (stereo not drawn)	i	0.31
Cc1ccc2cc(C#N)c(SCc3nnc(-c4ccccc4[N+](=O)[O-])o3)nc2c1	i	-1.82
CN(C)c1ccc(N/C=C/C(=O)C(C)(C)C)cc1	i	-1.45
COc1ccc2[nH]c(=O)c(CN(C(C)=O)c3ccc(C)c(C)c3)cc2c1	i	0.98
COc1cccc2sc(N(CCCN(C)C)C(=O)COc3ccc(Cl)cc3)nc12	i	0.48
Cc1ccc(S(=O)(=O)CC(=O)c2ccccc2[N+](=O)[O-])cc1	i	-0.28
O=C(NCc1ccon1)C1CCC(=O)N(CCc2cccc(F)c2)C1 (stereo not drawn)	i	-0.02
Next section.
SMILES	KCNQ2 inh	KCNQ2 inh baseline
CN(C)CCNc1c(N)c(=O)oc2ccccc12	i	0.58
Cc1cccc(N(CC(=O)NC2CC3CCC2C3)S(=O)(=O)c2ccccc2)c1 (stereo not drawn)	i	0.73
COc1cc(O)cc2c1[C@@H]1Oc3c(ccc(O)c3CC=C(C)C)[C@@H]1CO2	-6.46*	-1.46*
c1ccc(-n2nc3ccccc3n2)cc1	i	-0.37
CC(C)[C@H](Nc1ccc(S(=O)(=O)N2CCOCC2)cc1[N+](=O)[O-])C(=O)OCC(=O)N(C(C)C)C(C)C	i	-0.21
Cc1cccc(NC(=O)C2CCN(C(=O)NC3CCCCC3)CC2)c1	i	0.41
O=C(NCCc1ccccc1)[C@@H]1CC=C[C@@H]2CCN(Cc3ccccc3)C(=O)[C@@H]21	i	-0.36
COC(=O)c1ccc(CSc2nnc(CS(=O)Cc3ccc(Br)cc3)n2-c2ccccc2)cc1 (stereo not drawn)	i	-0.37
CSc1nc(-c2ccc(N(C)C)cc2)c(C#N)c(=O)n1C	i	1.87
O=c1cc(N2CCc3ccccc32)[nH]c(=O)n1-c1ccc(Cl)cc1	i	-0.08
COc1ccc(N2CC(C(=O)NC3CCSC3=O)CC2=O)cc1 (stereo not drawn)	i	-0.07
CC(C)OCCCNC(=O)CN1C(=O)/C(=C/c2ccccc2)Sc2ccccc21	i	-0.21
CC(C)(C)c1ccc(OC(=O)c2cccnc2)cc1	i	0.02
COc1cc(C)c(NC(=O)C(=S)NCCc2ccccc2)cc1C	i	-0.34
C=CCn1c(Cc2cccs2)nnc1SCC(=O)NCc1ccco1	i	0.01
N#CCCN1CCN(CCC#N)CC1	i	-0.41
CC(C)(C)n1nc2c(c1NC(=O)c1cc3ccccc3o1)CS(=O)(=O)C2	i	-0.66
Cc1cccc(OCC(=O)Nc2cccc3nsnc23)c1	i	4.69
Cc1ccccc1OCCNC(=O)CNC(=O)c1ccccc1O	i	1.92
C=CCn1c(SCC(=O)c2ccc(CNC(C)=O)o2)nc2scc(C3CC3)c2c1=O	i	0.12
Cc1ccc(-c2nc3cnccn3c2Nc2ccc3c(c2)OCCO3)o1	i	0.19
CCc1cc(/C(Cc2csc(C)n2)=N/O)c(O)cc1O	-7.65*	0.58*
Cc1cc(C)c(OCC(=O)Nc2nnc(-c3ccco3)o2)c(C)c1	i	0.57
O=c1c2ccccc2nc2n1C(CSc1ccccc1)CS2 (stereo not drawn)	i	0.73
O=C(Nc1ccccc1N1CCOCC1)C1(c2ccc(Cl)cc2)CCC1	-6.49*	0.7*
Further entries:
SMILES	KCNQ2 inh	KCNQ2 inh baseline
Cc1ccccc1N1CCN(S(=O)(=O)N(C)C)CC1	i	0.5
CCCCNc1nnc(Cc2ccc(Cl)cc2)c(=O)[nH]1	i	1.9
CCN(CC)S(=O)(=O)c1ccc(C(=O)NC2=NCCS2)cc1	i	0.02
CN1CCC(=NNC(=O)C(=O)NC(C)(C)C)CC1	i	-0.05
Cn1cc(S(=O)(=O)Nc2ccc(F)c(Cl)c2)c(=O)n(C)c1=O	i	1.27
Cc1ccc(S(=O)(=O)N(C)c2ccccc2C(=O)Nc2ccc3c(c2)OCCO3)cc1	i	-1.59
Cc1cccc(CS(=O)(=O)Cc2ccc(C(=O)O)o2)c1	i	-0.1
O=C(CSc1nc2ccsc2c(=O)n1CC1CCC(C(=O)O)CC1)c1ccc(F)cc1 (stereo not drawn)	i	-0.67
CNCC(O)c1ccc(O)c(O)c1 (stereo not drawn)	i	0.41
COC(=O)c1cc(N=Nc2sc(N)nc2C)cc(C(=O)OC)c1	i	0.67
NC(=O)c1nn(Cc2ccccc2)c(=O)c2ccccc12	i	-0.54
C=CCNC(=S)N/N=C/c1ccc(-c2cc(Cl)ccc2Cl)o1	i	-0.42
CN1CC(=O)N(CC(=O)Nc2ccc(SC(F)F)cc2)C1=O	i	-1.56
COc1ccc(C(=O)Nc2cc3c(cc2C(=O)O)OCCCO3)c(OC)c1	i	0.7
Cc1cccc(C)c1NC(=S)/N=C/N(C)C	i	1.02
CCN(CC)c1nc(Nc2ccccc2)nc(Oc2ccc(=O)n(C)n2)n1	i	-0.5
COc1ccccc1N(C(=O)c1snc(C(N)=O)c1N)C(C(=O)NC1CCCC1)c1ccco1 (stereo not drawn)	i	-0.96
Cc1nc(CNC(=O)CC2C(=O)NCCN2Cc2ccc(F)cc2)cs1 (stereo not drawn)	i	-0.34
Cc1noc(C)c1S(=O)(=O)Nc1ccc(C(=O)N2CCN(c3ccc(Cl)cc3)CC2)cc1	i	0.62
Cc1ccc(C)c(NC(=O)c2ccccc2Sc2ccc([N+](=O)[O-])cc2Cl)c1	i	-1.96
O=C(CCS(=O)(=O)c1ccc(Br)cc1)Nc1ccc2c(c1)OCO2	i	-0.13
COc1ccc(CCNCC2C(Oc3ccc(Cl)cc3)C(=O)N2c2ccccc2C)cc1OC (stereo not drawn)	i	-0.79
CCC(C(=O)c1ccccc1)N(C(=O)c1ccccc1Cl)N1C(=O)C2C3C=CC(C3)C2C1=O (stereo not drawn)	i	-0.67
COc1ccc(NC(=O)c2cn(-c3ccccc3)nc2SC)cc1	i	-0.14
CCC(CC)c1nnc(NC(=O)Oc2ccccc2)s1	i	0.53
(cont.)
SMILES	KCNQ2 inh	KCNQ2 inh baseline
COc1ccc(C(c2c(C)[nH][nH]c2=O)c2c(C)[nH][nH]c2=O)cc1Br	i	-0.21
CCC(=O)Nc1ccc(Nc2nc(Cl)nc(Nc3ccc(NC(=O)CC)cc3)n2)cc1	i	-2.7
COc1cc(NC(=S)N2CCN(C(c3ccccc3)c3ccccc3)CC2)cc(OC)c1	i	-0.25
COc1ccc(C(=O)NCCCc2nc3ccccc3n2Cc2cc(C)ccc2C)cc1OC	i	-1.54
O=C(O)/C=C/C(=O)N1CCN(c2ccc(F)cc2)CC1	i	0.59
CCOc1ccccc1C(=O)N1CCN=C1SC	i	-0.36
CC(C)(C)N(Cc1ccccc1)C(=O)c1cc2ccccc2o1	-5.86*	0.01*
CCCn1c(SCC(=O)Nc2cc(Cl)ccc2Cl)n[nH]c1=O	i	0.76
CC1CCc2nn(CC(=O)Nc3ccc(F)cc3F)cc2C1 (stereo not drawn)	i	1.03
Cc1nc(N2N=C(c3ccc(Cl)cc3)CC2c2ccco2)sc1C(=O)N(C)C (stereo not drawn)	i	0.1
NS(=O)(=O)c1cccc(NC(=O)CC2(CC(=O)O)CCCC2)c1	i	0.13
Cc1ccc(S(=O)(=O)N2CCOCC2)cc1NC(=O)COC(=O)Cc1cccs1	i	0.03
COC(=O)c1nc(-c2ccc(C)cc2)oc1N(C)C	i	1.04
O=C(NCc1ccco1)c1cnn2c(C(F)(F)F)cc(-c3cccs3)nc12	i	1.82
CCCOc1ccc(N2CC(C(=O)NCCc3ccc(OC)c(OC)c3)CC2=O)cc1 (stereo not drawn)	i	2.8
COc1ccc(Nc2nc(C)cc(=O)[nH]2)cc1	i	-0.67
CCOc1ccc(N2C(=O)CC(SC(=NC)Nc3cccc(F)c3)C2=O)cc1 (stereo not drawn)	i	1.01
Cc1c(NC(=O)c2ccccc2N)cccc1C(=O)O	i	-0.96
CC(=O)C1=C(c2ccccc2)NC(=O)NC1c1ccc2c(c1)OCO2 (stereo not drawn)	i	0.45
NS(=O)(=O)c1ccc(N/N=C/c2cn(-c3ccccc3)nc2-c2cccs2)c([N+](=O)[O-])c1	i	2.15
COCCn1c(SCC(=O)Nc2cccc(NC(C)=O)c2)nc2c([nH]c3ccccc32)c1=O	i	-0.27

Assay outcomes: PubChem BioAssay, Johns Hopkins Ion Channel Center

Only part of the results is shown. The share of hits here may be higher or lower than overall.
